Screening results from PubChem BioAssay.
UCH37 DUB inh: blocks the human deubiquitinase UCH37. inhibition, % (no concentration beside the values). 0.33% of 330,000 active. Q9Y5K5. AID 588478. purified proteasome/UCH37, Ub-AMC cleavage fluorescence;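 active means mean of two replicates above 20%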;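 further: 0% = compound-free wells with enzyme and 100% = wells lacking proteasome; stock transfer was 100 nL into about 20 µL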
Target sequence (Q9Y5K5 whole entry, looked up): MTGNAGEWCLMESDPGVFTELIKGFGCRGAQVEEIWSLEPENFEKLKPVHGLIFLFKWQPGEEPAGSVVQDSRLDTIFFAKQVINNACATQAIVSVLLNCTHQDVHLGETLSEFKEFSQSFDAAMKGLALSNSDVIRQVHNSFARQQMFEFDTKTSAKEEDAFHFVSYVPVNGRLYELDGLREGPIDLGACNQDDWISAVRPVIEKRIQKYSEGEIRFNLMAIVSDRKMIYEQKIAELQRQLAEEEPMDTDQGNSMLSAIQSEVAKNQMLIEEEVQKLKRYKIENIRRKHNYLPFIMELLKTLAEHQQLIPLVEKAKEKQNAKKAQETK
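Material: Human UCH37 enzyme supplied as purified proteasome complex | Schedule: 30 min preincubation with enzyme, 25 min cleavage at room temperature | Detection: AMC fluorescence 355/460 nm | Measure: % inhibition of Ub-AMC cleavage fluorescence | Controls: Wells without proteasome as full block, compound-free enzyme plus substrate as uninhibited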
LANA-H2B inh: blocks KSHV LANA binding to histone H2A/H2B; Q9QR71; cell-free LANA-H2A/H2B peptide, fluorescence polarization; inhibition, % (concentration not given with the values); 0.6% of 320,000 active; in the data active means inhibition mostly above about 10%, no sharp cut-off; inactive means mostly below about 6.7%;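 further: stock transfer was 7.5 nL into about 10 µL; 0% = median of vehicle wells and 100% = median of positive control wells; one replicate is shown; the record names a cut of 25% in any replicate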
ALR inh: human ALR oxidase inhibition via reduced H2O2. purified ALR, DTT oxidation, H2O2 HRP-luminol luminescence. inhibition, % (concentration not given with the values). 3.8% of 290,000 active;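 active means mean and each replicate at 75% or more; inconclusive means only one of the two met; inactive means neither met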;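 further: stock transfer was 7.5 nL into about 7.5 µL; 0% = neutral wells and 100% = wells with inactivated enzyme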
Target sequence (P55789 whole entry, looked up): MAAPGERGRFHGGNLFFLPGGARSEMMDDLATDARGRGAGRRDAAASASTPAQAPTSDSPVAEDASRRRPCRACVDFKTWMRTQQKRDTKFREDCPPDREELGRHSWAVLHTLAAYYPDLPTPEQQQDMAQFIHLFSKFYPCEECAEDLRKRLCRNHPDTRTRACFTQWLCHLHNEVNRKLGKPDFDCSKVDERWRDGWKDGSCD
Beta2AR agonist: activates human beta-2 adrenergic receptor causing internalization; Am2.2-beta2AR cells, FAP receptor internalization, flow cytometry; reference of the scale not given here; 0.43% of 340,000 active; AID 504454; response, % (test concentration not listed);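 active means response above a set limit, near 3 SD of response in nonfluorescent compounds, cut at about 42% in these data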;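 further: stock transfer was 100 nL into about 11 µL; a reference agonist was the positive control; negative values mostly stem from fluorescent compounds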
Target sequence (P07550 whole entry, looked up): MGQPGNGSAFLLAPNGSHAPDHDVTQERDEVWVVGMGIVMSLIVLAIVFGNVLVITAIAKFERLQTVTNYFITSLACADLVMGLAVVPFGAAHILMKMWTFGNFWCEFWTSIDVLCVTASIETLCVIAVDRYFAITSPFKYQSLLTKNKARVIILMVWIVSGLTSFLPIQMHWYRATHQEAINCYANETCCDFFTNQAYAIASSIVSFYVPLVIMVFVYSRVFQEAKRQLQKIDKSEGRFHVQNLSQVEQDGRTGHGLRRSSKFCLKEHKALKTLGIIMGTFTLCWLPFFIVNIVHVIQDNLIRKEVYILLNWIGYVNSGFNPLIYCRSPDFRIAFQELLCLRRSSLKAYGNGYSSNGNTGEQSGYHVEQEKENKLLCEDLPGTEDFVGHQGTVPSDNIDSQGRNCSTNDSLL
FGF22 binding: FGF22 (human) thermal shift binding; 1.5% of 340,000 active; Q9HCT0; calls only at 9.99 µM; AID 651658; recombinant FGF22 thermal shift, SYPRO orange fluorescence; percent of sucrose octasulfate shift, DMSO zero;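 active means melting point raised past a set limit in the mean and every replicate; inconclusive means no clear call; three in four hits are not shown here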
HNF4A DNA FP: change in binding of human HNF4 alpha to DNA. activity change, % at 10 µM. AID 1224865. 0.3% of 360,000 active. HNF4a-FITC DNA binding, fluorescence polarization, 1 h. P41235; in the data active means activity change above about 30%, passing the limit was not always enough;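 further: controls were the assay level and a saturating level of protein; the project sought stronger binding though the title names inhibitors; some compounds called inactive have numbers as strong as hits; positive values seem to mean higher polarization but the record does not say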
Ecoli growth: blocks Escherichia coli growth; OD600, 23 h; hits give low values; OD600 absorbance (concentration not given with the values); 0.21% of 330,000 active; AID 1053175;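 active means OD600 absorbance below the run mean of sample wells minus 3.6 SD, in any replicate, cut at about 0.56 in these data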;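 further: stock transfer was 300 nL into about 60 µL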
An asterisk follows results filed as active; i = inactive; u = inconclusive; x = no result given. This is a subset, so the mix of outcomes need not match the whole.

Structure,UCH37 DUB inh,LANA-H2B inh,ALR inh,Beta2AR agonist,FGF22 binding,HNF4A DNA FP,Ecoli growth
COc1ccc(C(=O)COC(=O)c2sccc2C)cc1OC,1.9,-0.7,2,-3,i,-1.4,0.72
O=C1c2ccccc2C(=O)N1CCCCc1cn(C[C@H]2CC[C@@H]([C@@H]3CC[C@H](Cn4cc(CCCCN5C(=O)c6ccccc6C5=O)nn4)O3)O2)nn1,3.5,2.9,1,-2,i,4.1,x
CC(C)(C)c1ccc(-c2nc(C#N)c(NCc3ccncc3)o2)cc1,-2.8,i,30,5,x,1.0,0.66
Cc1cc(C)c(C(N)=O)c(NC(=O)Nc2ccccc2Cl)n1,-0.6,-0.5,-13,-9,x,-0.4,0.69
Cc1cc(NC(=S)NC(=O)/C=C/c2ccc(S(=O)(=O)N3CCOCC3)cc2)ccc1Br,6.5,-2.7,-4,9,i,-2.9,0.71
CC(=O)Nc1ccc(S(=O)(=O)NCCC(=O)OC(C)C(=O)c2ccc(C)cc2)cc1 (stereo unspecified),-0.6,6.5,-2,-5,i,-3.1,0.65
CCC(=O)Nc1cc(C(=O)OCc2ccc(C(=O)Oc3ccccc3)cc2)ccc1C,1.7,-6.8,0,-4,i,-2.5,0.68
O=C(OCC(=O)N1CCN(c2ccccc2)CC1)c1ccc2ccccc2n1,-0.8,3.9,97*,-3,x,-0.8,0.63
CCCCCCc1c(C)[nH]c2nc3ccccc3n2c1=O,-13,2.5,22,-2,i,3.2,0.7
CCN(CC)S(=O)(=O)c1cccc(C(=O)OCC(=O)c2ccc3c(c2)OCCO3)c1,2.2,1.6,-9,-2,x,-3.5,0.7
Cc1ccc(-c2cc(C(=O)Nc3ccccc3C)c3ccccc3n2)o1,-73,-1.3,6,11,x,1.8,0.71
CC(=O)Nc1cccc(CCc2nc3ccccc3[nH]2)c1,2.2,1.3,-17,-16,i,-1.2,0.64
Cc1ccc(S(=O)(=O)/N=C2/NC(=O)/C(=C/c3ccc(Br)o3)S2)cc1,-7.9,2.0,54,9,x,12,0.65
CCCCCC1CC(CC(=O)Nc2nncs2)C(=O)O1 (stereo unspecified),3.3,2.0,-2,-3,x,-0.7,0.68
O=C(NCCc1ccccc1)c1c(O)c2cccc3c2n(c1=O)CC3,-3.1,-3.1,-10,-8,x,-2.2,0.65
Cc1ccc(-n2c(C)cc(/C=N/NC(=O)CC3(C)OCCO3)c2C)cc1,x,0.2,0,-4,x,3.1,x
Clc1ccccc1N1CCN(Cc2ccc(Br)o2)CC1,4.3,3.0,0,1,i,-2.4,0.66
O=C(O)CC1=C(O)C(=O)N(c2ccccc2)C1c1ccccc1 (stereo unspecified),2.2,1.2,6,2,x,-1.6,0.71
Nc1cccc(-c2c[nH]c3ncc(-c4cccnc4)cc23)c1,-2.4,x,x,14,x,7.0,x
COC(=O)[C@H](CC(C)C)NC(=O)Nc1ccc2c(c1)OCCO2,4.4,-1.2,-7,-5,i,0.7,0.75
O=C(O)c1ccnc(C(=O)O)c1,4.8,10,x,2,x,-1.7,0.72
CCO[C@H]1OC(C(=O)NC2CC2)=C[C@@H](c2coc3ccccc3c2=O)[C@@H]1CCCO,2.3,-1.3,x,-2,i,-0.2,x
CCN(CC)S(=O)(=O)c1ccc(=O)[nH]c1,x,-0.3,x,0,i,0.1,x
Cc1nnc(NC(=O)C2CCCN2S(=O)(=O)c2ccc(Cl)cc2)s1 (stereo unspecified),0.9,2.1,-6,1,i,1.2,0.71
CCOc1cc(CNCc2cccs2)ccc1OCC(=O)NC(C)(C)C,1.5,1.6,2,-2,x,-0.4,0.68
Cc1nn(C)c(C)c1NC(=O)c1ccnn1C,-0.3,0.4,0,3,x,-0.2,0.79
Cc1[nH]c(C)c2c(=O)[nH]ncc12,2.9,1.3,11,1,i,2.5,0.7
O=C(Nc1ccc2oc(=O)ccc2c1)c1ccc(-c2cccc(Cl)c2)o1,-4.6,-1.0,-8,45*,i,0.6,0.69
Cc1ccc(C2NC(=NCc3ccccc3)Nc3nc(C)cc(=O)n32)cc1 (stereo unspecified),4.7,0.7,-18,-1,i,-2.5,0.64
COc1ccc(-c2c(C)cc3oc(=O)cc(-c4ccccc4)c3c2C)cc1F,2.5,x,x,4,i,7.8,0.7
Cc1ccc(-c2nn(-c3ccccc3)cc2/C=C2\SC(=S)N(CCCCCC(=O)O)C2=O)o1,x,-110,x,-19,i,17,x
CCc1ccc(NC(=O)c2nc(S(=O)(=O)Cc3ccccc3)ncc2Cl)cc1,x,-3.0,-5,52*,i,-2.0,x
Cc1ccc(Cl)c(OC(=O)C2CSC3(C)CCC(=O)N23)c1 (stereo unspecified),1.9,-0.1,x,1,i,2.0,0.69
CC(Oc1ccccc1)C(=O)N=C1SC2CS(=O)(=O)CC2N1Cc1ccccc1 (stereo unspecified),5.5,3.8,-4,-10,i,-2.1,0.71
NC(=O)CNC(=O)C1CCCc2c1[nH]c1ccc(Cl)cc21 (stereo unspecified),1.9,3.0,-46,3,x,-2.8,0.67
CCCc1cc(=O)oc2c(C)c(OCC(=O)N3CCC(C(N)=O)CC3)ccc12,-30,-1.7,x,-16,i,-0.8,0.69
CCOC(=O)c1c(C)[nH]c(C)c1S(=O)(=O)NCCCN1CCOCC1,-0.6,-3.6,-1,0,i,2.5,0.68
Cc1ccc(C(=O)OCC(=O)NN2C(=O)NC3(CCC(C)CC3)C2=O)cc1 (stereo unspecified),0.6,-0.8,-3,6,i,0.9,0.64
COc1ccc2nc(NC(=O)CN3CCN(C)CC3)sc2c1,5.2,0.9,-32,-3,x,0.0,0.7
O=C(C1=C[C@H](c2ccc(C(F)(F)F)cc2)C[C@H](OCCCCO)O1)N1CCOCC1,1.5,3.2,-13,-5,i,-1.3,x
COc1ccccc1NC(=O)Cn1c(=O)sc2ccccc21,-5.2,-2.1,-13,-4,x,-3.3,0.73
O=C(CSc1ncn[nH]1)Nc1ccc(S(=O)(=O)N2CCCC2)cc1,6.3,1.2,-6,16,x,-1.6,0.76
O=C(Nc1ccc(CN2CCOCC2)cc1)c1ccc(-c2cccc([N+](=O)[O-])c2)o1,9.5,26*,24,13,i,0.5,0.71
O=C(COC(=O)c1cc(S(=O)(=O)N2CCOCC2)ccc1O)NCc1ccc2c(c1)OCO2,-3.4,x,x,0,x,-1.3,0.65
CCOC(=O)c1c(NC(C)=O)no[n+]1[O-],-0.7,2.6,48,-2,x,-2.6,0.7
CC(NC(=O)C1CCCCC1)C(=O)NC1=NCCS1 (stereo unspecified),-0.7,-1.2,-4,9,x,3.9,0.7
CCn1c2ccccc2c2cc(CNCc3ccc(OC)cc3OC)ccc21,1.3,5.2,-80,51*,i,4.8,0.57
CS(=O)(=O)N1CCC(C(=O)NNC(=O)Nc2ccc(F)c(Cl)c2)CC1,-0.4,-2.9,3,1,i,-0.4,0.67
CCCc1ccc(OCCNC(=O)CC)cc1,-0.6,5.4,2,0,x,-4.2,0.67
COc1cccc(/C=N/n2c(=O)[nH]c3ccccc32)c1OC,x,3.1,-8,-15,x,-0.8,x
CCCCn1c(NCc2ccc(N(C)C)cc2)nc2ccccc21,4.9,-12,88*,-1,i,6.4,0.64
O=c1[nH]nc(-c2ccc(F)cc2)cc1-c1ccccc1,-2.7,-0.8,3,-7,i,1.1,0.69
CC(C)(C)NS(=O)(=O)c1ccc(NC(=O)C2CCCCC2)cc1,1.2,-4.0,-5,2,i,1.9,0.61
Cc1cc(N2CCCC2)ccc1NC(=O)CN1C(=O)NC(C)(c2ccccc2)C1=O (stereo unspecified),x,-2.3,99*,-1,i,-3.5,x
O=C(Cc1c(F)cccc1Cl)NNC(=O)c1ccncc1,7.8,-0.6,x,-6,i,0.4,0.68
CCN(CC(=O)Nc1ccc(OC)cc1)C(=O)c1ccc(Cl)c(S(=O)(=O)N2CCCC2)c1,0.1,0.7,0,0,i,3.1,0.62
O=C(O)c1cc(S(=O)(=O)N2CC=C(c3ccccc3)CC2)ccc1O,2.7,2.2,4,-6,i,-3.3,x
COc1ccc(CNC(=O)COC(=O)CCOc2ccc(C)cc2)cc1,1.2,3.1,x,-3,i,-1.7,0.68
CCC(Sc1ccccn1)C(=O)Nc1cccc([N+](=O)[O-])c1 (stereo unspecified),3.1,2.9,-14,-16,i,9.0,0.69
CC(=O)Oc1ccc2occ(/C=N/c3cc(=O)[nH]c(=S)[nH]3)c(=O)c2c1,x,-15,22,8,i,0.5,x

Additional results:
Structure,UCH37 DUB inh,LANA-H2B inh,ALR inh,Beta2AR agonist,FGF22 binding,HNF4A DNA FP,Ecoli growth
O=[N+]([O-])c1ccccc1NCCNc1ncc(C(F)(F)F)cc1Cl,3.9,0.4,-2,5,x,0.7,0.8
NS(=O)(=O)c1cccc(NC(=O)CSc2nn(-c3ccccc3)c(=S)s2)c1,3.2,4.4,-5,-1,x,2.9,0.69
CC1(C)CC(NC(=O)Cc2ccc(Cl)cc2)CC(C)(C)N1,2.1,-4.5,-6,3,i,1.6,0.65
CC(=O)Nc1cccc(Oc2nc(C(F)(F)F)nc3ccccc23)c1,0.5,-6.9,4,-2,i,1.6,0.68
Cc1ccc(-n2nnc3c(=O)n(CC(=O)NCC4CCCO4)cnc32)cc1 (stereo unspecified),5.3,0.5,-13,-8,x,-0.7,0.74
CN(C)S(=O)(=O)c1ccc(=S)[nH]c1,5.6,-4.8,-5,-1,i,-1.3,0.71
O=C(c1ccc(OC2CCN(C/C=C/c3ccccc3)CC2)cc1)N1CCCCC1,4.1,-4.1,1,-2,i,2.4,0.68
COc1ccc(C)cc1Nc1c2c(nc3ccccc13)CCC2,7.2,5.4,u,4,i,3.5,0.6
COc1ccc(CCNc2cc(N3CCN(C(=O)c4ccccc4F)CC3)ccc2[N+](=O)[O-])cc1OC,-0.4,-0.9,-4,18,x,0.2,0.79
Cc1ccc(C(=O)N2N=C(c3ccccc3O)CC2c2ccccc2)cc1 (stereo unspecified),-3.9,-0.6,2,-9,i,1.6,0.68
O=C(O)c1cccc(NC(=O)c2cc(S(=O)(=O)N3CCOCC3)cs2)c1,1.7,-1.0,-4,-5,i,3.8,0.68
CCOc1ccc(C(NC(=O)/C=C/c2ccco2)c2ccc(OC)c(OC)c2)cc1 (stereo unspecified),1.0,-1.7,-5,3,i,-3.2,0.69
Cn1c(NCCCN2CCOCC2)nc2c1c(=O)n(Cc1ccc(Cl)cc1Cl)c(=O)n2C,6.8,-2.3,4,-2,x,-5.0,0.68
COc1ccc(Cc2nnc(SCC(=O)N3CCCCC3)o2)cc1,5.7,2.6,-2,-9,i,1.4,0.72
Cc1cc(Cl)ccc1OCC(=O)Nn1c(C)ccc1C,4.0,-3.6,-13,3,x,0.7,0.66
Cc1cc(C(=O)CSc2nnc(NCc3ccccc3)s2)c(C)n1C,2.0,2.8,8,1,x,-1.1,0.7
Cc1c(C(=O)NCc2ccco2)oc2ccccc12,1.1,2.5,x,9,i,1.3,0.57
CC(C)c1ccccc1N=C1SCCN1C1CCS(=O)(=O)C1 (stereo unspecified),4.8,-1.4,-5,10,x,5.0,0.71
Cc1ccc(C)c(N(CC(=O)NC2CCCCC2)C(=O)c2snc(C(N)=O)c2N)c1,-95,-0.8,-15,3,i,3.5,0.66
COc1cccc(/C=C2\SC(=S)N(NC(=O)c3ccncc3)C2=O)c1,16,-4.3,96*,-1,i,1.7,0.7

Entries of single compounds, looked up by structure. Values in the order: UCH37 DUB inh | LANA-H2B inh | ALR inh | Beta2AR agonist | FGF22 binding | HNF4A DNA FP | Ecoli growth
`Cc1c(C(=O)NCc2ccco2)oc2ccccc12` reads 1.1 | 2.5 | x | 9 | i | 1.3 | 0.57
`Cc1ccc(C)c(N(CC(=O)NC2CCCCC2)C(=O)c2snc(C(N)=O)c2N)c1` reads -95 | -0.8 | -15 | 3 | i | 3.5 | 0.66
